HSV augment – HSV replication enhancement; HSV replication augmentation in cells, fold increase; maximum fold increase; 220,000 compounds, 0.005% hits;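 active = peak rise of 1.5-fold or more in the series; inconclusive = self-fluorescent or not available for retest; tested in PC3 cells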;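 note: first round at 10 µM; read as green reporter fluorescence; hits show the peak of a series up to 25 µM; 1 = signal of infected wells without compound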
GALR2 ag – GALR2 (human) receptor agonism; 140,000 compounds, 0.48% hits; activation, %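 (tested at 5 µM)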; GALR2-expressing cells, agonist activation read-out; O43603;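 active = above mean plus 3 SD of all compounds, about 5% in these data, not always enough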;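 note: 0% = vehicle buffer wells and 100% = reference agonist at full effect; tested in CHO reporter cells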
Target sequence (O43603 whole entry, looked up): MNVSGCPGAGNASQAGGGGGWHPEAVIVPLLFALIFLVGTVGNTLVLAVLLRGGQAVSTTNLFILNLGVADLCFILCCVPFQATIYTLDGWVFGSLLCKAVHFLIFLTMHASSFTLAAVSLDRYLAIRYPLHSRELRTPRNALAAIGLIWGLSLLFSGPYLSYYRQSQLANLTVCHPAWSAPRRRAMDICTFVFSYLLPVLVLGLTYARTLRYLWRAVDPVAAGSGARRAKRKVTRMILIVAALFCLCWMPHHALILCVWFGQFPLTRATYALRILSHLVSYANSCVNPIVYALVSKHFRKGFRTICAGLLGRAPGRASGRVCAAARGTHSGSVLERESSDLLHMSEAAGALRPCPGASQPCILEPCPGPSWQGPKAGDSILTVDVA
PKD1 inh – blocks activity of human protein kinase D1; PKD1 kinase fluorescence polarization assay; Q15139; 200,000 compounds, 0.056% hits; AID 797; inhibition, %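 (about 10 µM by stock and volumes)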;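 active = inhibition of 50% or more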;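 note: controls were vehicle for no effect and a reference inhibitor for full effect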
Insulin prom inh – TRM-6 insulin promoter activity inhibition; 130,000 compounds, 0.9% hits; TRM-6 cells (human fetal islet line), insulin promoter-eGFP reporter, imaging; reporter expression induced with tamoxifen; inhibition, % at 2 µM;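 active = inhibition above the mean plus 3 SD, with well images judged a real hit on visual review, cut at about 60% in these data, passing the limit was not always enough; inconclusive = inhibition over the cutoff but images rejected on review; inactive = inhibition not above the cutoff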
RGS16-Gao HTS – modulates binding between human RGS16 and Galphao; bead-based flow cytometry RGS16-Galphao binding, fluorescence; actives lie on both sides; 220,000 compounds, 0.38% hits; binding response (% of control), % at 10 µM;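 active = below 25% or above 175%, edge rows of some plates excepted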;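 note: Galphao activated by GDP with aluminum fluoride before binding; 100% = wells without compound and 0% = beads without RGS; some results beyond the cut were filed as inactive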
Target sequence (O15492 whole entry, looked up): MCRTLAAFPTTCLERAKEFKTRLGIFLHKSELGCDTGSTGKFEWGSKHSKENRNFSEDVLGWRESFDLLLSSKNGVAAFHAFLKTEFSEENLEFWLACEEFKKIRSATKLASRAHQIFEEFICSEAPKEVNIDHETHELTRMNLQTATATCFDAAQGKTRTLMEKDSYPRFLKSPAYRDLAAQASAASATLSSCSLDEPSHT
Target sequence (P09471 whole entry, looked up): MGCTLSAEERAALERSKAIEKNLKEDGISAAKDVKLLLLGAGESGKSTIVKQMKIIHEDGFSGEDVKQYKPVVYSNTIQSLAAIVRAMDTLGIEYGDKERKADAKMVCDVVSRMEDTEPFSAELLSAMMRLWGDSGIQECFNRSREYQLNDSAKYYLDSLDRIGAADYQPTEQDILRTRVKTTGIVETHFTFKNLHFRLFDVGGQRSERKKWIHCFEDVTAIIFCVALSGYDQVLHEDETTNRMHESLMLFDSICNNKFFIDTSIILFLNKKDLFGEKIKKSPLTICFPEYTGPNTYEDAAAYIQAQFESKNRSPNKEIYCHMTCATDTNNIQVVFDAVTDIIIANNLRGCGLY
Insulin prom inh cell count – also measured in Insulin prom inh; calls as there; normalized cell count, %; measured here: cell count, toxicity; reference of the scale not given here;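 cells exposed to compound for 48 h; stained nuclei by imaging scaled within each plate; lower means fewer cells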
HSV augment primary fold – also measured in HSV augment; calls as there; fold increase; compound at 10 µM; measured here: primary screen fold increase 10 uM; tested in PC3 cells;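 GFP signal in the first replicate; 1 = infected wells without compound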
* marks the source's active call; other numbers are inactive results; i = inactive; ? = inconclusive; / = not tested or not shown; & = joins results of further samples.

Preview, four compounds:
| Molecule | HSV augment | HSV augment primary fold | GALR2 ag | PKD1 inh | Insulin prom inh | Insulin prom inh cell count | RGS16-Gao HTS |
| --- | --- | --- | --- | --- | --- | --- | --- |
| COc1ccc(S(=O)(=O)Nc2c(C)nc3nc[nH]n3c2=O)cc1 | i | 0.95 | / | 0 | 27 | 103 | 99 |
| COc1ccccc1-n1nc(C(=O)O)c2ccccc2c1=O | i | 0.75 | -1.5 | -4 | 30 | 60 | 112 |
| CCOc1cc(NC(=S)NCCOC)c(OCC)cc1NC(=O)c1cccs1 | i | 0.92 | / | 1 | / | / | 103 |
| CCOC(=O)CNc1c(N2CCN(c3ccccn3)CC2)c(=O)c1=O | i | 0.92 | -0.7 | -4 | / | / | 90 |

The whole of this part, previewed entries included:
| Molecule | HSV augment | HSV augment primary fold | GALR2 ag | PKD1 inh | Insulin prom inh | Insulin prom inh cell count | RGS16-Gao HTS |
| --- | --- | --- | --- | --- | --- | --- | --- |
| COc1ccc(S(=O)(=O)Nc2c(C)nc3nc[nH]n3c2=O)cc1 | i | 0.95 | / | 0 | 27 | 103 | 99 |
| COc1ccccc1-n1nc(C(=O)O)c2ccccc2c1=O | i | 0.75 | -1.5 | -4 | 30 | 60 | 112 |
| CCOc1cc(NC(=S)NCCOC)c(OCC)cc1NC(=O)c1cccs1 | i | 0.92 | / | 1 | / | / | 103 |
| CCOC(=O)CNc1c(N2CCN(c3ccccn3)CC2)c(=O)c1=O | i | 0.92 | -0.7 | -4 | / | / | 90 |
| Cc1nc(CN2CCN(C(=O)CCc3nnc(Cc4c[nH]c5ccccc45)o3)CC2)cs1 | i | 1.1 | / | -10 | / | / | 105 |
| CC(C)NC(=O)c1onc(CSc2ccc(C(C)C)cc2)c1C(=O)O | i | 1 | -2.2 | 8 | -16 | 152 | 96 |
| N#Cc1cc2c(nc1SCC(O)CS(=O)(=O)Cc1ccc(Cl)cc1)CCCC2 (configuration not stated) | i | 0.78 | -2.6 | -4 | 42 | 44 | 106 |
| C=CCn1c(C)csc1=Nc1ccc(C(C)=O)cc1 | i | 1 | / | 6 | 0 | 132 | 106 |
| CCCC[C@@H]1CNC(=O)C(=O)N1CCc1cc(C(F)(F)F)cc(C(F)(F)F)c1 | i | 1.1 | / | / | / | / | 101 |
| Cc1nc2c(C#N)c[nH]n2c(=O)c1Cc1ccccc1 | / | / | -1.8 | -7 | 12 | 91 | 99 |
| Cc1sc2nc(SCC(=O)O)[nH]c(=O)c2c1C | i | 1 | / | -3 | -50 | 96 | 103 |
| CCCc1cc(=O)[nH]c(SCCN2C(=O)c3ccccc3C2=O)n1 | i | 0.91 | / | -10 | / | / | 105 |
| O=C(O)Cc1ccc2oc(-c3cccnc3)nc2c1 | i | 0.92 | / | -7 | 0 | 103 | 100 |
| O=C(Nc1ccc(Cl)cc1F)C1CC1 | i | 0.92 | -0.7 | 11 | 32 | 147 | 105 |
| CCCN1CCC(NC(=O)Nc2ccc([N+](=O)[O-])cc2)CC1 | i | 0.87 | / | -6 | / | / | 99 |
| O=C(CNC(=O)c1ccco1)N/N=C/c1ccc(O)c([N+](=O)[O-])c1 | i | 1.1 | -0.2 | -1 | / | / | 87 |
| O=C(CN1CCN(c2ncc(C(F)(F)F)cc2Cl)CC1)N1CCN(c2ncc(C(F)(F)F)cc2Cl)CC1 | i | 0.84 | -3.6 | 7 | 26 | 26 | 96 |
| O=C(c1ccccc1)N1CCN(C(=O)c2ccncc2)CC1 | i | 0.93 | -2.8 | 3 | 0 | 215 | / |
| CC(=O)/C=N/Nc1ccccc1 | i | 1 | 0.3 | -12 | 10 | 106 | 105 |
| CN(C)c1ccnc(-n2cccc2/C=N/O)c1C#N | i | 0.99 | / | 3 | / | / | 104 |
| CC(=O)c1ccc(Oc2cc(C)nc(NCc3ccccc3)n2)cc1 | i | 0.91 | 0.1 | -13 | 69 | 48 | 99 |
| CC(C)(C)OC(=O)CNC(=O)c1[nH]cnc1C(=O)N[C@@H](CCCCNC(=O)OC(C)(C)C)C(=O)OC(C)(C)C | i | 0.79 | / | / | / | / | 119 |
| Cc1oc2c(c1C(=O)NC(Cc1c[nH]c3ccccc13)C(=O)O)CCCC2 (configuration not stated) | i | 1.1 | -0.1 | -3 | / | / | 107 |
| CCN(CC)c1ccc(C(=S)NC2CCCCC2)cc1 | i | 0.97 | / | 1 | / | / | 97 |
| c1ccc(COc2ccccc2CNCc2cccnc2)cc1 | i | 1 | -3.2 | -4 | -28 | 91 | 100 |
| CC(=O)Nc1ccc(C(=O)Nc2ccc3c(c2)OCO3)cc1 | i | 0.74 | -1.4 | 4 | -3 | 116 | 53 |
| N=c1c2ccccc2nnn1-c1ccc(C(F)(F)F)cc1 | i | 0.97 | / | -7 | / | / | 93 |
| O=c1oc2ccccc2c(NCc2ccc(Cl)cc2)c1[N+](=O)[O-] | i | 0.95 | / | / | / | / | 105 |
| O=c1c2cc(Cl)ccc2nc(-c2ccccc2Cl)n1O | i | 1 | / | 5 | / | / | 93 |
| CC1(C(=O)N2CC3(CC(c4cccc(NC(=O)COc5ccc(Cl)cc5)c4)=NO3)C[C@@H]2C(N)=O)CC1 (some centres not stated) | i | 0.94 | / | / | / | / | 100 |

(further entries)
| Molecule | HSV augment | HSV augment primary fold | GALR2 ag | PKD1 inh | Insulin prom inh | Insulin prom inh cell count | RGS16-Gao HTS |
| --- | --- | --- | --- | --- | --- | --- | --- |
| CN(Cc1ncc[nH]1)C(=O)c1cc(COc2c(F)cccc2F)on1 | i | 0.92 | / | -3 | / | / | 102 |
| CC(=O)Nc1nc(C)c(-c2csc(Nc3ccccn3)n2)s1 | i | 0.78&0.58 | / | -8 | / | / | 98&104 |
| CC(C(=O)NC(C)(C)C)N(C(=O)CS(=O)CC(=O)Nc1ccc(F)cc1)c1ccccc1F (configuration not stated) | i | 1.1 | / | -5 | / | / | 99 |
| CC(C)OC(=O)C[N+](C)(C)CCN1C(=O)C2C(c3ccccc3)C=CC(c3ccccc3)C2C1=O (configuration not stated) | i | 0.98 | / | -9 | / | / | 103 |
| Clc1ccc(/C=N/N2CCCCC2)cc1 | i | 0.95 | / | / | / | / | 103 |
| N/C(Cc1cccs1)=N\OC(=O)COc1ccc(Cl)cc1Cl | i | 0.99 | -0.1 | -4 | -3 | 51 | 81 |
| COc1ccc2nc(N3CCC(C)CC3)c(C#N)cc2c1 | i | 0.65 | 1.5 | 5 | 47 | 68 | 97 |
| COC(=O)c1ccc(/C=N/OCC(=O)Nc2cc(F)ccc2F)cc1 | i | 0.86 | / | -7 | / | / | 102 |
| CCOCCCNC(=O)CNC(=S)N(Cc1ccccc1F)C1CCCCC1 | i | 1.1 | -0.4 | -3 | 29 | 53 | 101 |
| Oc1ccc(-c2[nH]ncc2-c2cccc3cccnc23)c(O)c1 | i | 0.9 | -2.5 | -6 | / | / | 100 |
| CCCCCCCC(=O)NNC(=O)CC(=O)Nc1ccccc1C(=O)O | i | 1 | -0.5 | -3 | 10 | 104 | 106 |
| CCCCNC(=O)NC(C(=O)OC)C12CC3CC(CC(C3)C1)C2 (configuration not stated) | i | 1 | / | -2 | / | / | 104 |
| O=C(c1cc(-c2ccco2)on1)N1CCOCC1 | i | 0.93 | -1.8 | -2 | 3 | 113 | 98 |
| C=CCNc1nc(-c2ccc([N+](=O)[O-])cc2)cs1 | / | / | -0.3 | 6 | 42 | 156 | 113 |
| N#Cc1ccc(OCc2nnc(SCC(=O)c3ccccc3)n2-c2ccccc2)cc1 | i | 0.85 | -2.3 | -4 | 32 | 98 | 46 |
| Cc1ccc(NC(=O)Nc2ccccc2C#N)c(Cl)c1 | i | 0.98 | -0.8 | -4 | 11 | 176 | 99 |
| C=CCNC(=S)NNC(=O)c1ccc(=O)n(Cc2ccccc2)c1 | i | 0.9 | / | -1 | / | / | 89 |
| COc1ccc(-c2cn[nH]c2N)cc1 | i | 0.89 | -0.6 | 2 | -21 | 72 | 97 |
| C=CCSc1ncnc2c1oc1nc3c(cc12)COC(C)(C)C3 | i | 1.1 | / | / | / | / | 92 |
| O=C(NCc1ccccc1)C1=C[C@@H](c2ccccc2)C[C@@H](OCc2ccc(CO)cc2)O1 | i | 0.93 | / | 1 | / | / | 100 |
| O=c1[nH]c(Nc2ccc(F)cc2)cc2ccccc12 | i | 0.97 | 3.6 | 2 | -19 | 124 | 102 |
| CCOc1ccc(N2CC(=O)N/C2=N\c2nc(C)cc(C)n2)cc1 | i | 1 | 0.3 | -10 | 8 | 89 | 109 |
| Cc1onc(-c2c(F)cccc2Cl)c1C(=O)OCc1cnc(Cl)s1 | i | 1 | / | -2 | / | / | 97 |
| Cc1ccc(-c2csc3ncnc(Oc4cccc5ccc(C)nc45)c23)cc1 | i | 0.9 | -1.6 | 3 | 26 | 130 | 106 |
| COc1ccc(-c2csc(NC(=O)c3cccc(S(=O)(=O)N4CCN(C)CC4)c3)n2)cc1 | i | 0.83 | -1.7 | 0 | -37 | 61 | 96 |
| CC(C)Cn1c2c(c(O)c(C(=O)Nc3ncccc3O)c1=O)CCCC2 | i | 1 | 0.1 | -3 | 8 | 130 | 101 |
| COC(=O)c1cn(CC(=O)N2C(C)CCCC2C)c2ccccc12 (configuration not stated) | i | 0.97 | -2.4 | -6 | 30 | 105 | 127 |
| O=C(Nc1ccc2c(c1)OCO2)c1ccc(COc2ccc3c(c2)CCC3)o1 | i | 0.83 | -1.1 | -11 | 0 | 158 | 95 |
| CCCOc1ccc(N2C(=O)CC(NCCNc3ccc([N+](=O)[O-])cn3)C2=O)cc1 (configuration not stated) | i | 1.1 | / | / | / | / | 103 |
| O=C1CCCC2=C1C(c1ccc(Cl)cc1)N1C(=O)CCSC1=N2 (configuration not stated) | i | 0.84 | -1.0 | -5 | -11 | 125 | 98 |

Next part.
| SMILES | HSV augment | HSV augment primary fold | GALR2 ag | PKD1 inh | Insulin prom inh | Insulin prom inh cell count | RGS16-Gao HTS |
| --- | --- | --- | --- | --- | --- | --- | --- |
| CC(C)(C)C1c2[nH]c3ccccc3c2CCN1CCCn1cccn1 (configuration not stated) | i | 1.3 | / | 1 | / | / | 105 |
| Oc1c(Br)cc(Br)cc1C=Nc1ccc2[nH]ncc2c1 | i | 1.2 | / | / | / | / | 104 |
| COc1ccc(NCc2nnc(SCCN3CCCCC3)n2-c2ccc(C)cc2)cc1 | i | 0.73 | / | -6 | / | / | 113 |
| C=CCOc1ccc(/C=N/NC(C)=O)cc1OCC | i | 0.99 | / | 4 | / | / | 128 |
| COc1cc(NC(=O)CCNC(=O)Cn2cnc3ccccc3c2=O)cc(OC)c1OC | i | 0.81 | -1.3 | -2 | 57 | 77 | 108 |
| CC1CCN(c2ccccc2NC(=O)c2ccc(N3CCOCC3)c([N+](=O)[O-])c2)CC1 | i | 0.85 | -2.2 | -12 | 17 | 74 | 101 |
| O=C(COc1ccccc1)N1CCN(C(=O)c2cccs2)CC1 | i | 1.1 | -1.6 | 1 | / | / | 94 |
| CCN(CC)c1ccc(/C=N/N2CCN(Cc3ccccc3)CC2)cc1 | i | 0.96 | / | -9 | 0 | 97 | 103 |
| Nn1c(=O)c2ccccc2n2c(SCc3ccc(C(F)(F)F)cc3)nnc12 | i | 0.98 | -0.2 | -5 | 35 | 165 | 97 |
| CCN1CCN(CC(=O)Nc2cccc(C)c2)C(=O)C1=O | i | 0.93 | -2.8 | 2 | / | / | / |
| COc1ccc(OC)c(S(=O)(=O)Nc2ccc(C)c(C)c2)c1 | i | 0.99 | -3.8 | -2 | 54 | 75 | 97 |
| CC1=NOC(=O)/C1=C\c1ccc(-c2cccc(Cl)c2)o1 | i | 0.89 | 1.5 | 1 | 6 | 73 | 83 |
| CN(C)c1ccc(/C=N\NC(=O)CC#N)cc1 | i | 0.98 | / | 1 | 45 | 162 | 108 |
| C(=N\c1ncnc2sccc12)/NOCc1ccccc1 | i | 0.85 | 0.4 | -18 | 3 | 99 | 101 |
| CCCN1CCc2c(sc(NC(=S)NC(=O)c3ccccc3)c2C#N)C1 | ? | / | / | 2 | i | 48 | 102 |
| CC(C(N)=O)N1c2cccc3cccc(c23)S1(=O)=O (configuration not stated) | i | 1.1 | / | -2 | 12 | 94 | 102 |
| Cc1cccc(OCc2nnc(SCC(=O)N3c4ccccc4CCc4ccccc43)o2)c1 | i | 0.76 | / | / | / | / | 92 |
| COc1ccc(S(=O)(=O)NCCSCc2ccco2)cc1Cl | i | 1 | -1.4 | -6 | -50 | 131 | 103 |
| CC(C)N(Cc1ccccc1)C(=O)COC(=O)c1cnccn1 | i | 1 | / | -9 | / | / | 104 |
